Rango dissoc inh: prevents RanGTP from dissociating the Rango-importin beta complex; O95149+P62826; Biochemical FRET Rango-importin beta, RanGTP-induced dissociation; Potency, µM (highest dose often 46.1 µM), for inactives: at the top dose activity change, negative = inhibition; 340,000 compounds, 0.071% hits; AID 540253; active means falling FRET ratio curve, often poorly fitted, with flat reads before Ran was added; inconclusive means other falling curves, or compound fluorescence or quenching; inactive means flat or rising ratio curve;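 further: potency means the concentration at half of the fitted maximal effect; % of control where 0% means no effect; nearly all actives have a fitted effect of over 45% in size; -100% = wells without RanGTP and RCC1; the record marks most hits as doubtful in a second field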
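Two FRET readings bracket the reaction: one 5 min after compound meets Rango–importin beta, another 45 min after RanGTP-RCC1 (0.6 uM Ran, 0.2 uM RCC1, 2 mM GTP) is added. Only the second defines inhibition.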
GLA inh pH 4.5: blocks human alpha-galactosidase A at pH 4.5; purified enzyme, 4-MU-alpha-Gal fluorescence, pH 4.5; activity change, negative = inhibition, % at 105 µM; 230,000 tested, under 10 active; inconclusive = small, poorly fitted or top-dose-only inhibition, or a rising curve; inactive = flat fitted curve, though single readings scatter; no compound was filed as active;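 further: 0% = full activity with enzyme and -100% = basal without enzyme; dose as in the result columns while the protocol names 77 µM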
Rango-impB inh: prevents formation of the Rango-importin beta complex; Q14974; Rango CFP/YFP FRET sensor + importin beta, 45 min; Potency, µM (highest dose often 92.2 µM), for inactives: at the top dose inhibition of complex formation; 340,000 compounds, 0.031% hits; AID 540263; active = rising FRET ratio curve, often small or poorly fitted; inconclusive = mostly compound fluorescence or quenching in the first reads; inactive = flat curves in all reads;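 further: potency means the concentration at half of the fitted maximal effect; 0% = DMSO wells and 100% = buffer wells lacking importin beta; nearly all actives have a fitted effect of over 15% in size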
Target sequence (Q14974 whole entry, looked up): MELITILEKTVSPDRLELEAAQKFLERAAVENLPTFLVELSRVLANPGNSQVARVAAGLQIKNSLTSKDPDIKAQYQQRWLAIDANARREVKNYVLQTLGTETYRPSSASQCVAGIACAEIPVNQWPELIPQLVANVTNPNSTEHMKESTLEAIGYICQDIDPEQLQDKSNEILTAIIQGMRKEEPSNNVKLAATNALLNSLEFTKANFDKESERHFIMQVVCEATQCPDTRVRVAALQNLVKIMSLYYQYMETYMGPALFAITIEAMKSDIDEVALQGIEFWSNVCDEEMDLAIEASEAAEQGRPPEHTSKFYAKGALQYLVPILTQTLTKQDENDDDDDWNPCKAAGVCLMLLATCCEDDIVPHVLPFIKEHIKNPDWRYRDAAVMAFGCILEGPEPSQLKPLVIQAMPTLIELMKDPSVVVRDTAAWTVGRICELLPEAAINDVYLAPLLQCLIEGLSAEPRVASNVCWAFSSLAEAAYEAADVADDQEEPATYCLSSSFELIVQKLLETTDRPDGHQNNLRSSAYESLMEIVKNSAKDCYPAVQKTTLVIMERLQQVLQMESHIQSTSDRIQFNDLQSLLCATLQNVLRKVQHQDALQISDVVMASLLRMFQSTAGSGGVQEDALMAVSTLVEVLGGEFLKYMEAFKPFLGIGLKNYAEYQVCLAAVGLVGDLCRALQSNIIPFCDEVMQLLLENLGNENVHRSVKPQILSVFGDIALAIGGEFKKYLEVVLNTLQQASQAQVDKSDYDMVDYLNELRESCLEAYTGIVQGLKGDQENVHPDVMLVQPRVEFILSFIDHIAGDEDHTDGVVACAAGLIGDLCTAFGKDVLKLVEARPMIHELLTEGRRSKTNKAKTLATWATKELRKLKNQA
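Inhibition scored from the CFP 486 nm/YFP 530 nm FRET ratio 45 min after adding 0.125 microM importin beta to 50 nM Rango biosensor preincubated 5 min with compound (room temperature, PBS with DTT, Tween-20, BSA). No-importin wells as positive control.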
miR-21 FLuc: miR-21 reporter, rising signal; HeLa miR-21 FLuc reporter, luciferase, 48 h; Potency, µM (doses to about 38.3 µM), without a hit: top-dose reporter change, positive = more light; 340,000 tested, under 10 active; AID 2288; active = well fitted rising curve with a large enough effect; inconclusive = small, poorly fitted or top-dose-only effect; inactive = no such curve, though single readings can be large or run the other way;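 further: % of control where 0% means no effect; miR-21 action dims this reporter so a rising signal means less miR-21 action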
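Compounds were titrated across several concentrations (up to approximately 40 uM) and incubated 48 hours with HeLa miR-21-FLuc reporter cells (miR-21 target sequence downstream of FLuc, endogenous miR-21). Readout was firefly luciferase luminescence after lytic detection reagent.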
The depositor's hits bear a star; ? = inconclusive; / = not tested or not shown; & = joins results of further samples; [ ] = dose if it differs, or a comment. These rows are one share of the data, so the mix of outcomes need not match the whole.

Rango dissoc inh	Rango-impB inh	miR-21 FLuc	GLA inh pH 4.5	SMILES
-7%	-1.0%	2%	-11	Cc1cccc(-c2nc(CN3CCCC(C(=O)NC4CCCC4)C3)c(C)o2)c1 (stereo not given)
-4%	5.4%	18%	-2	O=C(NCc1ccc(Cl)cc1)c1cc(=O)nc2sc(-c3ccccc3)nn12
6%	7.3%	-1%	-4	CCN1CCN(Cc2nc3c(c(=O)n(C)c(=O)n3C)n2C(C)C(C)=O)CC1 (stereo not given)
-6%	0.0%	/	/	CC1CCCC(C)N1C(=O)COC(=O)c1cc(=O)[nH]c2ccccc12 (stereo not given)
-3%	2.0%	-2%	/	CCCc1cc(=O)oc2c(C)c(OCC(=O)Nc3cccnc3)ccc12
/	/	-39%	3	CCCC(C)NC(=O)c1ccc(-c2ccccc2)cc1 (stereo not given)
-12%	-4.9%	/	/	CCC(C)Sc1ccc([C@H]2N[C@@](C)(C(=O)OC)[C@H]3C(=O)N(C)C(=O)[C@@H]23)cc1 (stereo not given in full)
-7%	-0.3%	-2%	7	COc1ccccc1Oc1cc(F)nc(N)n1
1%	-0.3%	0%	-2	CC(C)(CC(=O)O)CC(=O)NCc1c(Cl)cccc1Oc1ccccc1
-2%	1.5%	-2%	3	CS(=O)(=O)N(CC(=O)NC1CCCCC1)Cc1ccc(Cl)cc1
-2%	-1.1%	-11%	-9[21.1 µM]	COc1ccccc1NC(=O)CN1CCSc2ccccc21
-16%	-2.9%	-6%	/	O=C(c1cc(F)ccc1F)N1CCC(N2CCC(C(=O)N3CCCC3)CC2)CC1
0%	1.0%	-20%	-5	O=C(/C=C\c1ccccc1)Nc1ccc(NC(=O)c2ccco2)cc1
-8%	-0.1%	0%	-17	O=C(O)CCCN1C(=O)C(=O)/C(=C(/O)c2ccccc2)C1/C=C/c1ccccc1 (stereo not given)
-12%	?	13%	?	CCN1c2ccccc2-c2nc3ccccc3n2C1c1cccs1 (stereo not given)
22%	-1.5%	-10%	-4	COc1ccccc1Nc1nc(N)nc(CN2CCN(Cc3ccc4c(c3)OCO4)CC2)n1
-1%	3.4%	6%	0	COc1cc(O)c(CCC(=O)c2cc(OC)c(OC)c(OC)c2)c(OC)c1
-3%	0.5%	2%	10	CC(C(=O)OCC(=O)c1ccc([N+](=O)[O-])cc1)N1C(=O)C2C3CCC(C3)C2C1=O (stereo not given)
13%	0.5%	?	/	O=C(Cc1ccc(Br)cc1)NC1CCN(Cc2ccccc2)CC1
-3%	-1.4%	0%	2	O=CN1CCN(C(=S)Nc2ccc(OC(F)F)cc2)CC1
0%	-2.7%	-2%	4	CC1CCN(CC(=O)Nc2ccccc2C(=O)c2ccccc2)CC1
-14%	-3.8%	-10%	-5	CC(NC(=O)Cc1cccs1)C(c1cccs1)N1CCOCC1 (stereo not given)
-8%	3.9%	-1%	-3	CCn1nnc(NC(=O)COc2ccc(C3CCCCC3)cc2)n1
-1%	0.9%	-5%	0	O=C(CSCCc1ccccn1)Nc1ccc(Br)cn1
3%	-0.4%	/	/	Cc1ccc(S(=O)(=O)N2[C@@H](c3cccc(C)c3)C(C(=O)O)=C[C@H]2CC2CCCC2)cc1
44%	-7.6%	12%	-3	COc1cccc(C2CC(=O)Nc3cc4c(cc32)OCCO4)c1OC(C)C (stereo not given)
-9%	2.2%	-8%&-15%	/	COc1ccc(NC(=O)C2=CC(c3cccs3)=NS(=O)(=O)N2C)cc1
-2%	4.3%	/	/	Cc1ccc(NC2C(=O)NC(=O)NC2=O)cc1
19%	-0.1%	-1%	4	O=C(CCNS(=O)(=O)c1cccs1)Nc1nccs1
-1%	-0.5%	2%	8	O=C(O)c1ccccc1C(=O)NNc1ccc(F)cc1
-19%	0.6%	2%	/	CS(=O)(=O)N(CC(=O)N1CCOCC1)c1cc(Cl)ccc1Cl
-7%	-5.8%	-22%	-17	COc1ccc(N2Cc3cccc(C(=O)NC(C)CCc4ccco4)c3C2=O)cc1 (stereo not given)
-4%	?	/	/	CC(=O)N1C2=CCCC3CCCCC23c2ccccc21 (stereo not given)
2%	0.5%	-47%	1	CCC(/C=N/NC(=O)c1ccccc1F)CC
8%	2.0%	-40%	/	COc1cccc(NC(=O)COc2cc(O)c3c(c2)OC(C)(C)CC3=O)c1
-4%	1.0%	-23%	2	Cc1ccc(NC(=O)c2oc3ccccc3c2NC(=O)c2ccc3c(c2)OCO3)cc1
6%	2.0%	-2%	6	CCC(C)NCCCOc1ccc(C)cc1OC (stereo not given)
-4%	-3.5%	/	/	Cc1ccc(C)c(OCCC(=O)OCC(=O)NC2CCS(=O)(=O)C2)c1 (stereo not given)
2%	0.2%	/	/	CCc1noc(C)c1C(=O)N1CCN(S(=O)(=O)c2ccccc2C(F)(F)F)CC1
-5%	0.7%	/	/	O=C(CN1CCN(C(=O)c2cncn2-c2ccc(F)cc2)CC1)Nc1ccccc1C(F)(F)F
-15%	-1.4%	2%	-9	CNC(=S)N(CCc1c(C)[nH]c2ccc(C)cc12)Cc1ccc(OC)c(OC)c1
15%	?	-1%	-3	COc1cc(OC)cc(-c2nc(-c3ccc(Br)cc3)no2)c1
1%	0.6%	-1%	/	CCc1ccccc1NC(=O)NCCN1CCCCC1
-5%	3.3%	/	3	COC(=O)C1=C(C(=O)OC)[C@@H]2N(C)c3ccc(OC)cc3[C@@]23C[C@@H](C(=O)OC)N(C(=O)c2ccco2)C3=N1
-23%	2.0%	-11%	/	CCc1ccc(NC(=O)C2C3CCC(O3)C2C(=O)O)cc1 (stereo not given)
0%	-0.1%	-2%	-13	COc1ccccc1CN1C[C@@H]2C[C@@H](C3=Cc4cc(Cl)ccc4OC3)N3CCC[C@@]23C1=O
?	?	-1%	1	CCCSCC(=O)Nc1ncc2c(n1)-c1ccccc1CC2
-5%	-1.6%	/	/	N#CC(C#N)=C1CCCc2sccc21
1%	0.6%	-31%	-1	COc1cccc(N2CCN(C3C4CC5CC(C4)CC3C5)CC2)c1 (stereo not given)
-7%	-3.9%	1%	2	COc1ccc(NC(C)=O)cc1NC(C)C(=O)Nc1ccccc1F (stereo not given)
-19%	0.4%	/	/	CCOc1ccc([C@@H]2CC=C(C(=O)O)CN2S(=O)(=O)c2ccc(C)cc2)cc1
18%	-0.7%	/	-14	CCOC(=O)C1C(C(=O)OC)=C(c2ccc(OC)cc2)c2ccccc2N1S(=O)(=O)C(F)(F)F (stereo not given)
1%	0.6%	0%	-11	c1cncc(-c2nc(NCc3ccc4c(c3)OCO4)c3ccccc3n2)c1
-15%	-0.3%	-2%	/	CC(C)C(=O)Nc1ccc(NC(=O)c2ccc(COc3ccccc3)cc2)cc1
?	?	-4%	-1	CCOC(=O)C1=C(O)/C(=C\c2cc(C)n(-c3ccccc3F)c2C)N=C1C
-10%	0.9%	-4%	/	CC1CCCC(NC(=O)CCC(=O)NCc2ccccc2)C1C (stereo not given)
0%	-1.7%	-4%	-1	CCN(CC)CCn1c(NCc2cccc(OC)c2OC)nc2ccccc21
-8%	0.2%	-30%	2	Nc1ccccc1SCc1cc([N+](=O)[O-])cc2c1OCOC2
4%	0.7%	-3%	5	COc1ccc(NC(=S)NC2CC3CCCC(C2)N3C2CC2)cc1 (stereo not given)
-3%	-6.3%	/	/	CCc1ccc(N2CC(C(=O)Nc3cccc(C(=O)NC4CC4)c3)CC2=O)cc1 (stereo not given)

Fetched by structure from the list above, 2 records:
Rango dissoc inh	Rango-impB inh	miR-21 FLuc	GLA inh pH 4.5	SMILES
-4%	-3.5%	/	/	Cc1ccc(C)c(OCCC(=O)OCC(=O)NC2CCS(=O)(=O)C2)c1 (stereo not given)
?	?	-1%	1	CCCSCC(=O)Nc1ncc2c(n1)-c1ccccc1CC2

A second format for part of the listing above:
Structure: COc1cccc(NC(=O)COc2cc(O)c3c(c2)OC(C)(C)CC3=O)c1
  Rango dissoc inh = 8%; Rango-impB inh = 2.0%; miR-21 FLuc = -40%; GLA inh pH 4.5 = /

Structure: COc1ccc(N2Cc3cccc(C(=O)NC(C)CCc4ccco4)c3C2=O)cc1 (stereo not given)
  Rango dissoc inh = -7%; Rango-impB inh = -5.8%; miR-21 FLuc = -22%; GLA inh pH 4.5 = -17

Structure: COc1ccc(NC(C)=O)cc1NC(C)C(=O)Nc1ccccc1F (stereo not given)
  Rango dissoc inh = -7%; Rango-impB inh = -3.9%; miR-21 FLuc = 1%; GLA inh pH 4.5 = 2

Structure: CCC(/C=N/NC(=O)c1ccccc1F)CC
  Rango dissoc inh = 2%; Rango-impB inh = 0.5%; miR-21 FLuc = -47%; GLA inh pH 4.5 = 1

Carrying on:
Rango dissoc inh	Rango-impB inh	miR-21 FLuc	GLA inh pH 4.5	SMILES
1%	0.0%	0%	5	Cc1ccc(NC(=O)CCC(=O)NNC(=O)NC23CC4CC(CC(C4)C2)C3)cc1C
-8%	-5.3%	0%	-6	CCCSc1nc(C)c(-c2csc(C(C#N)=C3CCCC3)n2)cc1C#N
-2%	8.5%	-32%	-5	CC(=O)/C(N=Nc1ccc2c(c1)OCCO2)=C(\C)O
3%	-2.2%	-3%	0	Cc1ccc2c(c1)N(CC(=O)NCC1CCCO1)C(=O)C(C)O2 (stereo not given)
4%	0.4%	-35%	/	Cc1ccccc1COc1ccc(-c2nn[nH]n2)cc1
-26%	?	-2%	-3	Cc1c(Cl)cccc1-n1nnnc1-c1cccs1
1%	0.1%	-10%	7	C/C(=N/N1CCN(Cc2cccc3ccccc23)CC1)c1ccco1
35%	-4.8%	-7%	-16	COc1ccccc1N1CCN(C(=O)c2oc3cc(C)c(C)cc3c2C)CC1
-11%	-4.8%	1%	8	CCCCCCCc1c(O)nc(SCC(=O)O)[nH]c1=O
2%	-3.6%	0%	-17	COC(=O)C(CCSC)NC(=O)Cn1ncc2c(=O)oc3ccccc3c21 (stereo not given)
-8%	8.3%	0%	-4	Cc1ccc(OCC(=O)N/N=C/c2ccncc2)cc1
-14%	-3.2%	-9%	-26	COc1ccc(/C=N/N2CCOCC2)cc1COc1ccc(F)cc1
15%	-0.5%	?	3	Cc1c(C(=O)c2no[n+]([O-])c2C(=O)c2cnn(C)c2C)cnn1C
-30%	?	8%	-3	CCS(=O)(=O)Nc1ccc(C2=NN(S(=O)(=O)c3ccc(F)cc3)C(c3ccco3)C2)cc1 (stereo not given)
19%	0.4%	-67%	-10	CC(=O)c1ccc(NC(=O)c2cc(Cl)sc2Cl)cc1
-1%	-2.6%	-34%	-2	O=C(NCCc1cccc(Cl)c1)c1cccc([N+](=O)[O-])c1
-7%	-0.8%	-18%	9	Cc1cc(C(=O)CSc2cccc[n+]2[O-])c(C)n1-c1ccccc1
-4%	-1.5%	0%	6	O=C(CCN1C(=O)c2ccccc2C1=O)Nc1sc2c(c1C(=O)NCc1ccco1)CCCC2
1%	-1.6%	10%	3	CCCCN(CC)Cc1ccc(CNC(=O)Nc2ccc(F)cc2)o1
1%	-5.1%	0%	/	CCOc1ccc(NC(=O)CCC(=O)c2ccc(OC)cc2)cc1
?	-2.3%	-4%	5	Cc1ccc(NC(=O)C2CC(=O)Nc3ncnn32)cc1Cl (stereo not given)
4%	?	-21%	/	CCCCCCOc1ccc(N2C(=O)CC(SCCN)C2=O)cc1 (stereo not given)
2%	-2.7%	-15%	1	COC(=O)C1=C(C)N(c2cccc(C)c2)C(=O)/C1=C\c1cccs1
7%	1.3%	-7%	-5	Cc1cccc(OCC(=O)N=Nc2c(O)[nH]c3ccc([N+](=O)[O-])cc23)c1
6%	-5.9%	-2%	8	C=CCn1cc(F)c(=O)n(CC=C)c1=O
-1%	-0.3%	-8%	5	Cc1nnc(NC(=O)c2c(F)cccc2F)s1
2%	2.2%	-28%	12&-7	O=C(NCCO[N+](=O)[O-])c1cccnc1
1%	-0.6%	/	/	CCc1sc(C(=O)NNC(=O)c2cncc(Br)c2)cc1C
1%	4.2%	4%	1	O=C(C1CCCCC1)N1CCC(CO)(Cc2ccccc2Cl)CC1
6%	-0.2%	-4%	/	CCOC(=O)Cn1nc(NC(=O)c2ccc3c(c2)OCO3)cc1C
1%	2.7%	1%	7	O=C(COC(=O)/C=C/C(=O)N1CCN(c2ccccc2)CC1)NCc1ccc(F)cc1

Bioassay records: PubChem, National Center for Advancing Translational Sciences (NCATS)
